Six1-Eya2 blk = qHTS Assay for Inhibitors of the Six1/Eya2 Interaction; Homeobox protein SIX1 (Homo sapiens) + Protein phosphatase EYA2 (Homo sapiens), …; AlphaScreen GST-Six1/His-Eya2 binding, biochemical; stronger effect = lower value; control for the full effect not named in the record; activity change, % (no concentration beside the values); 360,000 compounds, 0.56% hits; in the data active = activity change below about -65%; inconclusive = about -30% to -65%; inactive = above about -30%; note: % is set by controls: 0 for no effect and ±100 for the full control effect
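Homogeneous AlphaScreen proximity assay pairing GST-Six1 with His-tagged Eya2 (added as 5X mix: 250 nM and 500 nM) in 50 mM Tris pH 8.0, 300 mM NaCl, 1 mM TCEP. Glutathione donor and nickel acceptor beads; 1 h, 37 °C, dark.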
D2 agonist = Beta-Arrestin HTS for Positive Allosteric Modulators of the Human D2 Dopamine Receptor: Agonists; D(2) dopamine receptor (Homo sapiens), P14416; DiscoveRx PathHunter D2 beta-arrestin, luminescence, 90 min; 100% = 57 uM dopamine signal; activation, % (test concentration not listed); 360,000 compounds, 0.084% hits; AID 624465, 2012; in the data active = activation above about 40%; inconclusive = about 15% to 40%; inactive = below about 15%; note: compound concentration not given in the record; the text of the record calls up to 30% inactive
Target sequence (P14416 whole entry, looked up): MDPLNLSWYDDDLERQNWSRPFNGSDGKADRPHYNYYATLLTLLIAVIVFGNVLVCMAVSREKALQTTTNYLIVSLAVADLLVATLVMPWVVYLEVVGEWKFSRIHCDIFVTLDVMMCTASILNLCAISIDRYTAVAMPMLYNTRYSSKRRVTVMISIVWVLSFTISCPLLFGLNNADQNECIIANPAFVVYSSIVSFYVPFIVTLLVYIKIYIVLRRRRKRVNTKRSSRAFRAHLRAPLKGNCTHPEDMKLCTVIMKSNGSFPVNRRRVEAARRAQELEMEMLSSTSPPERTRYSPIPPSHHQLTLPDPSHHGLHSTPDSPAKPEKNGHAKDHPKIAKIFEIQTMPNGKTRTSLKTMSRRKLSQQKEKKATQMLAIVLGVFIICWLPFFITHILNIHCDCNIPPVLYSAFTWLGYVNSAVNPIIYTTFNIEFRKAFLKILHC
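Agonist mode: compounds alone added to overnight-plated D2 PathHunter cells for 90 min at 37 C, with 57 uM final dopamine (EC100) defining full response. Beta-arrestin recruitment detected by chemiluminescent reagent, read after 1 h at ambient temperature.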
D2 PAM = Beta-Arrestin HTS for Positive Allosteric Modulators of the Human D2 Dopamine Receptor: Potentiators. potentiation, % (no concentration beside the values). D(2) dopamine receptor (Homo sapiens), P14416. DiscoveRx D2 beta-arrestin cells, luminescence, 90 min; 100% = 57 uM dopamine signal. 360,000 compounds, 0.23% hits. AID 624464, 2012; active = potentiation of 50% or more; inconclusive = 30% to 50%; inactive = 30% or less;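 note: compound concentration not given in the record; tested on top of an EC20 dose of dopamine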
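D2 cells co-treated with compound plus 50 nM dopamine (EC20) for 90 min at 37 deg C to detect potentiation. Beta-arrestin recruitment was read as enzyme-fragment luminescence after 1 h at ambient temperature. Full response was set by 57 uM dopamine.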
PINK1 modulator = A Quantitative High throughput Screen to Identify Chemical Modulators of PINK1 Expression; PINK1 immunofluorescence, high-content cytometry, 24 h; Potency, µM (series often up to 76.6 µM), for the others: at the top dose activation (PINK1 increase), hits mostly activators; 410,000 compounds, 0.2% hits; AID 624263, 2012; active = well fitted activation curve with a large enough effect; inconclusive = small, poorly fitted or top-dose-only effect; inactive = flat fitted curve, though single readings scatter; cell line not stated here;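 note: potency is the fitted concentration of half-maximal effect; % of control where 0% means no effect; nearly all actives have a fitted effect of over 65% in size; a mitochondrial uncoupler was the plate control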
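Readout is PINK1 immunofluorescence, quantified alongside mitochondrial, cell and nuclear markers by laser-scanning microplate cytometry. Cells from a stable line were exposed to compound titrations (5 concentrations) for 24 hours, with CCCP controls.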
TRPML1 agonist = qHTS for Agonists of the Human Mucolipin Transient Receptor Potential 1 (TRPML1); Mucolipin-1 (Homo sapiens), Q9GZU1; TRPML1-expressing cells, Ca2+ dye fluorescence, FDSS; host cell line not named in the record; reference of the full effect not given here; activation, % (no concentration beside the values); 410,000 compounds, 0.12% hits; in the data active = activation above about 50%; inconclusive = about 30% to 50%; inactive = below about 30%; note: 0% is about no effect; the text of the record puts the active cut at 80%
Target sequence (Q9GZU1 whole entry, looked up): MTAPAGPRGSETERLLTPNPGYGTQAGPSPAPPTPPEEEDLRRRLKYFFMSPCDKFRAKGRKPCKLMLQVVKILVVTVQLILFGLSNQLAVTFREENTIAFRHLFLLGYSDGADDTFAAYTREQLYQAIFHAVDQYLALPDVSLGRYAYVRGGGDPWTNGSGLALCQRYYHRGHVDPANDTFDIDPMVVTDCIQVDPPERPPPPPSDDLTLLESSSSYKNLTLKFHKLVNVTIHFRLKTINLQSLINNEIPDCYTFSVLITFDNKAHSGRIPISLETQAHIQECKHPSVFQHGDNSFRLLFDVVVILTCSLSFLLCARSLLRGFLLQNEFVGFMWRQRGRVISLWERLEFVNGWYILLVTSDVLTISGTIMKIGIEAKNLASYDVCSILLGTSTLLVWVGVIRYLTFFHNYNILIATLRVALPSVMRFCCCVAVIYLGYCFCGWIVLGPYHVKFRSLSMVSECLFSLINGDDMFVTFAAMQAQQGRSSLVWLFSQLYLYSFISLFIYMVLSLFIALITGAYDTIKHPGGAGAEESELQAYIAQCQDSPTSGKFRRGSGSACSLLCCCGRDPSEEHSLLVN
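Tet-induced TRPML1-DL cells, 1,500 per well, cultured overnight, were loaded with a no-wash Ca2+ dye for 45–90 min. Calcium fluorescence was recorded on the FDSS for 110 s after compound addition, before the EC80 agonist (4 uM 54-4) was added.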
TRPML1 inh = qHTS for Inhibitors of the Human Mucolipin Transient Receptor Potential 1 (TRPML1) | Mucolipin-1 (Homo sapiens), Q9GZU1 | TRPML1-inducible cells, Ca2+ dye fluorescence, FDSS; stronger effect = lower value; inhibition of EC80 agonist-evoked calcium signal | activity change, negative = inhibition, % (test concentration not listed) | 390,000 compounds, 0.02% hits | AID 624415, 2012; in the data active means activity change below about -50%; inconclusive means about -30% to -50%; inactive means above about -30%;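 note: stimulus is agonist 54-4 at its EC80 concentration; % is set by controls: 0 for no effect and ±100 for the full control effect; compound concentration not given in the record; the text of the record puts the active cut at -80%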
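TRPML1-DL cells, Tet-induced overnight (~16 h, 37 °C) at 1,500 cells/well, were loaded with Ca8 no-wash dye plus quencher for 45-90 min at room temperature. Compounds were pinned during FDSS kinetic reading; agonist 54-4 at EC80 (4 uM final) then added.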
Active calls of the source: *; ? = inconclusive; nt = not tested or not shown; & = joins results of further samples; [ ] = another dose, or the depositor's remark.

Structure	PINK1 modulator	D2 agonist	D2 PAM	Six1-Eya2 blk	TRPML1 agonist	TRPML1 inh
O=S(=O)(NCc1cccnc1)c1cc(Cl)ccc1Cl	-2.8%[38.3 µM]	-1.7	-5.4	6.0	0.9	36.5
CCN(c1ccccc1)S(=O)(=O)c1cc(C(=O)Nc2ccc(Br)cc2)ccc1F	9.3%&4.1%	1.8	-4.3	0.8	-0.1&2.6	-17.7&-8.7
COc1ccccc1C(=O)CSc1n[nH]c(N)n1	0.4%	-3.9	9.6	1.7	-0.5	-5.3
O=C(O)c1ccc(OC(F)(F)C(F)C(F)(F)F)cc1 (stereo not given)	-1.0%	-4.4	-8.7	4.4	-0.5	4.0
COc1ccc(S(=O)(=O)N2CCC(C(=O)N[C@@H](C)C(=O)NCc3ccccn3)CC2)cc1	0.1%	4.7	-4.3	6.1	0.2	-3.6
CCCCCn1c(=N)c(S(=O)(=O)c2ccccc2)cc2c(=O)n3ccccc3nc21	-0.9%	nt	nt	nt	1.5	-21.7
COc1ccc(/C=C/C(=O)OCC(=O)N2c3ccccc3CC2C)c(OC)c1 (stereo not given)	-1.0%	-2.8	-12.8	4.6	-0.7	0.0
Cc1cc(Nc2cccc(C(F)(F)F)c2)n2nc(C)nc2n1	0.0%	-3.2	-6.1	1.4	-0.8	-2.2
C=CCOC(=O)C1=C(C)Nc2nc3ccccc3n2C1c1ccncc1 (stereo not given)	2.6%	-0.3	-6.1	-0.5	2.4	-9.1
O=C(Nc1ccc(Br)cc1)c1cc(S(=O)(=O)Nc2ccccn2)ccc1Cl	3.6%	1.1	-4.8	-3.3	-0.1	18.0

Structure	PINK1 modulator	D2 agonist	D2 PAM	Six1-Eya2 blk	TRPML1 agonist	TRPML1 inh
O=C(CN1CCCCC1)Nc1ccc(S(=O)(=O)N2CCCCCC2)cc1	5.4%[38.3 µM]	-2.5	-11.8	2.0	0.3	3.4
CC1=C(C(=O)N(C)C)CC(CC(=O)NCCCCc2ccccc2)C(=O)N1CCC1=CCCCC1 (stereo not given)	-0.3%	-8.3	0.4	-0.1	0.5	-4.0
CC1=C(C(=O)OCC2CCCO2)C(c2cccc(O)c2)NC(=O)N1 (stereo not given)	0.3%[38.3 µM]	-1.6	-10.4	3.0	0.5	11.9
CCOC(=O)C1CCCN(c2cc(=O)n(Cc3ccc(F)cc3)c(=O)[nH]2)C1 (stereo not given)	-3.0%[38.3 µM]	-1.4	-2.6	1.3	-0.3	8.0
NC(=O)COC(=O)c1ccccc1OCc1ccccc1	-0.3%	0.5	-4.9	2.8	-0.2	7.3
Nc1nc2n(n1)C(c1ccc(F)cc1)CC(c1ccc(F)cc1)N2 (stereo not given)	2.0%[38.3 µM]	-2.9	2.1	18.8	1.3	-0.5
COc1cc(/C=C2/SC(=S)N(Cc3ccccc3)C2=O)ccc1O	2.3%	-5.7	-11.3	?	?	4.0
c1csc(Cn2nnnc2CN2CCN(c3nc4ccccc4s3)CC2)c1	-2.8%	-2.6	-16.0	-2.0	1.7	4.2
CC(=O)OCC12COC3c4ccccc4OC(C)(CC1C)C3C2C (stereo not given)	0.5%	-0.4	-20.1	4.4	1.5	39.1
CCC(=O)Nc1ccnc(-c2cccnc2)n1	11.8%[38.3 µM]	-3.1	-5.9	-2.5	0.4	2.4

Structure	PINK1 modulator	D2 agonist	D2 PAM	Six1-Eya2 blk	TRPML1 agonist	TRPML1 inh
COC(=O)c1c(C)[nH]c(O)c1C=Nc1ccc(Oc2ccccc2)cc1	5.8%	-2.7	-6.5	4.0	-0.7	-15.7
CCCCN(C)C(=O)c1cc2cc([N+](=O)[O-])cc(OC)c2oc1=O	2.1%	-1.9	-3.0	17.9	-0.3	3.8
COc1cc2[nH]c(-c3ccc(C)cc3)cc(=O)c2cc1OC	2.4%	1.3	-31.5	-8.4	-0.6	0.0
C/C(N)=C(/C#N)C(=O)COC(=O)c1ccc(C)c(S(=O)(=O)N2CCCCC2)c1	-1.5%	0.0	1.8	-3.3	0.4	12.7
Cc1nn2c(=O)cc(COC(=O)CNC(=O)c3ccc(F)cc3)nc2s1	-1.2%	nt	nt	nt	0.2	1.3
CCOC(=O)C1C(=O)CC(C)(O)C(C(=O)OCC)C1c1ccccc1 (stereo not given)	-0.1%	-1.0	-5.3	0.6	-0.2	-9.5
COc1ccc(-c2cn(CCC(=O)O)c(-c3ccncc3)n2)cc1	1.1%	-1.5	-9.6	-2.9	-0.1	17.5
COc1ccc(N2C(=O)CSC23C(=O)N2c4c(cccc43)C(C)=CC2(C)C)cc1 (stereo not given)	20.8%[38.3 µM]	-1.7	-6.4	-8.7	0.7	0.6
COc1cccc2[nH]c(=O)c(-c3ccccc3)cc12	-0.2%	-0.8	0.1	1.7	nt	nt
CCN(CC(=O)Nc1ccc(NC(C)=O)cc1)CC(=O)Nc1cccc2ccccc12	-0.1%	-0.3	-11.0	-4.2	-0.6	-6.6

Structure	PINK1 modulator	D2 agonist	D2 PAM	Six1-Eya2 blk	TRPML1 agonist	TRPML1 inh
O=C(Nc1nnc2n1CCS2)c1ccccc1C(F)(F)F	-2.2%	nt	nt	nt	0.5	14.2
CC1(C)CC2CC(C)(CN2C(=O)COC(=O)c2ccccc2C(F)(F)F)C1 (stereo not given)	0.7%	-2.7	-3.8	-2.2	-0.2	-3.1
CC(C)NC(=O)C1CCN(C2CCN(C(=O)c3cc4c(s3)CCCCC4)CC2)CC1	-0.8%	3.0	-6.2	0.2	-0.3	-3.8
CCCOC(=O)c1ccc(NC(=O)/C=C/c2cccs2)cc1	10.9%	3.8	13.8	12.4	0.7	-18.2
CCC1(CC)C(=O)C2=C3C1[C@H](C(=O)OC)C=C(C(=O)OC)C[C@H]3[C@H]1C(=O)N(CC(=O)OC)C(=O)[C@H]1[C@H]2C (stereo not given in full)	-0.6%	1.9	-24.4	5.1	-0.3&0.1	12.4&-10.4
S=C1NC2=C(CCCC2)C2(CCCCC2)N1	2.1%	-2.8	-14.9	0.9	-0.6	44.1
C/C(=N\NC(=O)c1cc([N+](=O)[O-])cc([N+](=O)[O-])c1)c1ccco1	1.4%	11.9	2.7	-4.8	-0.1	-13.1
CCOC(=O)c1ccc(NC(=O)c2cc3c(s2)CCC3)cc1	2.3%	0.2	-7.7	-1.0	1.0	-1.9
CCOC(=O)c1sc2nc(Cc3ccc(Cl)cc3)[nH]c(=S)c2c1C	11.0%	-2.2	-4.6	6.9	1.4	-3.3
Cc1c(C(=O)O)oc2c1ccc1ccccc12	-0.2%	-3.3	-12.3	-7.0	-0.4	8.8

Structure	PINK1 modulator	D2 agonist	D2 PAM	Six1-Eya2 blk	TRPML1 agonist	TRPML1 inh
CCN(c1ccccc1)S(=O)(=O)c1ccc(NC(=O)c2nc(SC)ncc2Cl)cc1	10.0%	nt	nt	nt	0.6	-0.2
Cc1cc(OC(=O)c2ccc(S(=O)(=O)N3CCOCC3)cc2)c([N+](=O)[O-])c(=O)[nH]1	2.4%	-3.2	-6.5	7.0	0.1	33.4
Cn1c(=O)[nH]c(=O)c2c1nc(N1CCN(C(=O)c3ccco3)CC1)n2CCCSc1ncccn1	-0.4%	-0.9	-6.9	1.2	0.8	-3.1
Cc1noc(NS(=O)(=O)c2ccc(NC(=O)CS(=O)(=O)c3ccccc3)cc2)c1C	1.9%	-3.3	-8.5	-0.4	-0.7	9.8
CC1CC2c3cccc(C(=O)O)c3C(=O)N2c2ccc(Cl)cc21 (stereo not given)	-0.8%	-1.8	-1.7	-2.0	-0.6	-0.8
CC(C)(C)c1ccc(C(=O)NCC(=O)N/N=C/c2cccnc2)cc1	-0.1%	-0.2	-4.9	12.5	0.1	2.9
COc1ccc(Cc2nnc(SC)n2-c2ccc(F)cc2)cc1OC	1.6%	-3.0	-0.1	-29.1	-0.3	nt
CCc1nc2ccc(C(=O)Nc3cc(-c4ccccc4)ccc3OC)cn2c1N(C)CCC(C)C	0.9%	-7.7	-19.4	-3.6	-0.6	nt
COc1ccc(S(=O)(=O)N2CCC(O)(c3ccc(Cl)cc3)CC2)cc1	-0.1%	0.4	-5.0	-2.1	1.5	40.5
COc1ccc(OC)c2c(N3CCN(C)CC3)cc(C(F)(F)F)nc12	0.6%	-3.0	-18.0	-0.2	-0.3	31.0

Structure	PINK1 modulator	D2 agonist	D2 PAM	Six1-Eya2 blk	TRPML1 agonist	TRPML1 inh
O=C(CSc1ccc2nnc(-c3ccccn3)n2n1)Nc1ccc2c(c1)OCCO2	0.3%	-2.1	-2.1	-20.7	-0.6	6.2
Cc1ccccc1Cn1cc(S(=O)(=O)CC(=O)Nc2nccs2)c2ccccc21	nt	1.3	-0.6	-6.3	2.5	-7.2
O=C(CN1CCC(C(=O)c2ccc3c(c2)OCCO3)CC1)NCc1ccccc1	0.7%	-2.4	-8.1	21.0	2.6	29.2
COCCCNC(=S)Nc1ccccc1[N+](=O)[O-]	-0.8%	-2.9	3.5	0.8	0.1	3.3
CCCC(C)NC(=O)CN(Cc1ccco1)S(=O)(=O)c1ccccc1 (stereo not given)	3.3%	-3.7	2.7	3.0	-1.3	-13.2
COc1cc(-c2nc3ccc(C)cn3c2NCc2ccccc2)ccc1SC1CCCCC1	?	2.6	-7.6	-6.4	-0.1	28.0
CC(C)(C)c1ccc(OCCn2nc(C(=O)O)c3ccccc3c2=O)cc1	7.2%	-2.8	-4.3	-15.2	0.2	-8.3
O=C(Nc1ccc(Cl)cc1)Nc1nnc(CSCc2ccc(Cl)cc2)s1	11.2µM*	-1.4	-0.9	-0.2	0.0	4.4
Cc1cc(C(=O)OCC(=O)Nc2ccc(F)c(F)c2F)c(C)o1	0.6%	-20.5	-2.4	-2.5	0.1	12.4
Cc1ccc(S(=O)(=O)NCC(=O)Nc2ccc(C(F)(F)F)cc2)cc1	5.3%[38.3 µM]	-1.1	4.1	1.7	0.6	4.3
Cc1ccc(Cn2c(=O)c3ccccc3n3c(CCC(=O)NCCN4CCOCC4)nnc23)cc1	-0.4%	5.0	-7.7	8.9	-0.7	-2.0
O=C(N[C@@H]1C/C=C\C[C@@H](CC(=O)N(CCO)Cc2ccccc2)C(=O)NCCOC1=O)OCC1c2ccccc2-c2ccccc21	0.1%	-10.3	-7.0	14.0	0.3	0.6
CN1C(=O)c2ccccc2Sc2ccc(NC(=O)COc3ccc(Cl)cc3)cc21	7.0%	nt	nt	nt	1.7	15.2

Screening results as filed in PubChem.
